# Beta cell apopt: beta cell apoptosis inhibition | actives 0.8% (n = 300,000) | INS-1E cytokine-induced death, ATP luminescence, 48 h; percent of positive-control rescue, neutral wells zero | protection from apoptosis, % (test concentration not listed) | AID 435005;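 active = all replicates at 75% or more, or half of them and the mean; inconclusive = half reach 75% but not the mean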;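 note: 0% = cytokine-treated negative control wells and 100% = positive control rescue; higher means more ATP so stronger rescue from cytokine killing; wells of about 40 µL received 100 nL stock; the first replicate is given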
# E coli growth: E. coli growth inhibition. actives 0.21% (n = 330,000). OD600 absorbance (concentration not given with the values). Escherichia coli growth, OD600, 23 h; hits give low values;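 active = OD600 absorbance below the run mean of sample wells minus 3.6 SD, in any replicate, cut at about 0.56 in these data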;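 note: stock transfer was 300 nL into about 60 µL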
# MLL AF4-AF9 inh: inhibitors of human MLL-AF4/AF9 interaction; P42568; actives 0.47% (n = 350,000); inhibition, % at 10 µM; AlphaScreen, biotin-AF4 peptide binding to FLAG-AF9; AID 651704;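 active = every replicate reaching a set inhibition limit, whatever the replicate mean, cut at about 25% in these data; inconclusive = mean inhibition reaches that limit but some replicates miss it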;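 note: 0% = plate neutral control median and 100% = total signal loss; the record names both 10 and 1 µM as test concentration; the first replicate is given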
# Target sequence (P42568 whole entry, looked up): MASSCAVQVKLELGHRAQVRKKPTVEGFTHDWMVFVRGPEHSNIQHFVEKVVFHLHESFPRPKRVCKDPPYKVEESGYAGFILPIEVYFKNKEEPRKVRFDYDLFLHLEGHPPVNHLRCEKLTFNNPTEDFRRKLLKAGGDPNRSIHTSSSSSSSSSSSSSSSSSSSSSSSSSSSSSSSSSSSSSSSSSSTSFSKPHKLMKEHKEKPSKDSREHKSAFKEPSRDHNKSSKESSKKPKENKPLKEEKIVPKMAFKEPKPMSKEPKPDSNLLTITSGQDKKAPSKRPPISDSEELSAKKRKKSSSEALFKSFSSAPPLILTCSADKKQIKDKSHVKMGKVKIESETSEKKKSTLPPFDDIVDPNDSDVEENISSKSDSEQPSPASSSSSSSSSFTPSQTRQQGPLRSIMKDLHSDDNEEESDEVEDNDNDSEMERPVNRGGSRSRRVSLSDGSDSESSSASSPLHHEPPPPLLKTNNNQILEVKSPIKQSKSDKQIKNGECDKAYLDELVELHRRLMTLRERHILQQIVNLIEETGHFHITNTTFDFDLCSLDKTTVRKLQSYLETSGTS
# Bfl-1 A1 inh: inhibitors of the anti-apoptotic protein A1, read as caspase activation. MEF A1-2A-BIM cells, Caspase-Glo 3/7 luminescence, 3 h; percent of clofoctol response, vehicle zero. caspase activation, % (no concentration beside the values). actives 0.066% (n = 330,000). AID 2462;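 active = over half of replicate activation scores above 10%, or exactly half above 10 with the replicate mean above 10; inconclusive = replicate mean below 10 yet half the replicates above 10; inactive = over half of replicates below 10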;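 note: wells of about 30 µL received 50 nL stock; many hits fall short of the cut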
# rRNA inh HTS: inhibits bacterial ribosomal RNA function over humanized ribosomes; E. coli WT GFP vs humanized-ribosome RFP mutants, fluorescence, 24 h; hits give low values; DMSO median 0, no signal -100; GFP signal change (wild-type ribosome), % (concentration not given with the values); actives 1.6% (n = 350,000); AID 720706;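 active = significant combined selectivity score with lowered wild-type GFP, culture density cut under 30%, mutant RFP and density less affected; inactive = any of these conditions unmet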; note: one replicate is shown; some compounds called inactive have numbers as strong as hits
# UCH37 DUB inh: human UCH37 deubiquitinating enzyme inhibition. Q9Y5K5. AID 588478. actives 0.33% (n = 330,000). purified proteasome/UCH37, Ub-AMC cleavage fluorescence. inhibition, % (concentration not given with the values);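 active = mean of two replicates above 20%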;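 note: 0% = compound-free wells with enzyme and 100% = wells lacking proteasome; stock transfer was 100 nL into about 20 µL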
# Target sequence (Q9Y5K5 whole entry, looked up): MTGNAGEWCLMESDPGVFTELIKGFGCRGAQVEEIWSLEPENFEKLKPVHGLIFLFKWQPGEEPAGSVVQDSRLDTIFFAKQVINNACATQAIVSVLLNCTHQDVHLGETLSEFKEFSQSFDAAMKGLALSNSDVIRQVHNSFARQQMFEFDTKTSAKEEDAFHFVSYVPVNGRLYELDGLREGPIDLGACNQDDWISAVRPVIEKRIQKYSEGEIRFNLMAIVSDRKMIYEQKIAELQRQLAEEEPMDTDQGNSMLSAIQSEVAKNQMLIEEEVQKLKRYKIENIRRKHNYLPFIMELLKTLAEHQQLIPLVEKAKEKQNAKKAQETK
#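 Material: human UCH37 enzyme supplied as purified proteasome complex / Amount: 0.15 nM proteasome as dispensed / Buffer or medium: pH 7.4 Tris-HCl (50 mM) with ovalbumin, ATP-MgCl2, DTT / Times: preincubation 30 min, reaction 25 min, room temperature / Technique: AMC fluorescence from Ub-AMC cleavage, excitation 355 nm, emission 460 nm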
# FGF22 binding: FGF22 (human) thermal shift binding | Q9HCT0 | recombinant FGF22 thermal shift, SYPRO orange fluorescence; percent of sucrose octasulfate shift, DMSO zero | calls only at 9.99 µM | actives 1.5% (n = 340,000) | AID 651658;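 active = melting point raised past a set limit in the mean and every replicate; inconclusive = no clear call; three in four hits are not shown here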
# Target sequence (Q9HCT0 whole entry, looked up): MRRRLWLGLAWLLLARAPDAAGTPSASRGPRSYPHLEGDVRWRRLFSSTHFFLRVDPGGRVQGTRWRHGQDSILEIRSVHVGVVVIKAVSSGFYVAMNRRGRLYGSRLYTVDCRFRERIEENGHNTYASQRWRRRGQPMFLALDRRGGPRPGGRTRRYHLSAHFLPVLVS
# T cruzi inh: blocks replication of Trypanosoma cruzi. T. cruzi beta-gal in NIH3T3, luminescence, 90 h. inhibition, % (test concentration not listed). actives 1.4% (n = 300,000). AID 1885;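 active = mean inhibition across valid replicates above about 55%, limit read from the data; inconclusive = mean below that limit but half or more replicates reach it; inactive = mean below it, under half of replicates reach it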;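 note: signal also drops with host cell toxicity which is not excluded here; 0% = plate median of DMSO wells and 100% = zero luminescence signal; higher percent means less beta-gal luminescence so fewer parasites; stock transfer was 50 nL into about 50 µL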
# rRNA inh HTS OD600: second read-out of rRNA inh HTS, no call of its own (marks repeat the call); OD600 change, %; measured here: OD600 growth;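 optical density of the mix in the first replicate; 0 = DMSO median and -100 = no signal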
# rRNA inh HTS RFP: second read-out of rRNA inh HTS, no call of its own (marks repeat the call); RFP signal change, %; measured here: RFP humanized mutant strains;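 first replicate; 0 = DMSO median and -100 = no signal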
# Starred values were filed as active, the others as inactive; i = inactive; ? = inconclusive; · = not tested or not shown. Only part of the results is shown, so the mix of outcomes need not match the whole.
SMILES,Beta cell apopt,E coli growth,MLL AF4-AF9 inh,Bfl-1 A1 inh,rRNA inh HTS,rRNA inh HTS OD600,rRNA inh HTS RFP,UCH37 DUB inh,FGF22 binding,T cruzi inh
CCn1c(SCC(=O)Nc2nccs2)nnc1-c1ccccn1,1,0.71,-2.2,0.3,1,2,-2.5,0.6,i,-2
CCOC(=O)C1=C(CC)Nc2ccccc2N=C1NC(=O)c1ccc(S(=O)(=O)N2CCCC2)cc1,-3,0.7,1.3,0.1,-9,-9,8.7,-0.5,i,4
CCc1nnc(NC(=O)c2ccc(S(=O)(=O)N(CC(C)C)CC(C)C)cc2)o1,13,0.71,·,1.0,·,·,·,-0.1,·,·
CCc1cccc(C)c1NC(=O)CSc1nnc(C)o1,·,0.72,-0.8,1.4,0,1,0.2,-0.4,i,1
Cc1sc(NC(=O)c2ccco2)c(CN2CCN(c3ccc(F)cc3)CC2)c1C,-10,0.74,·,1.3,0,8,-3.0,-17,·,21
COc1cc(O)ccc1C(=O)CCc1ccc(O)cc1,-7,0.63,3.8,-0.1,-18,-12,2.6,4.3,i,0
Cn1cc(-c2cccc(C(F)(F)F)c2)cc(C#N)c1=O,-2,0.66,-0.2,0.0,6,5,-1.2,-215,i,-5
O=C1CCCN1c1ccc(CNS(=O)(=O)c2ccc(F)cc2)cc1,11,0.73,·,-0.1,·,·,·,2.0,·,-6
CC(C)(C)OC(=O)N[C@@H](C(=O)OC(C)(C)C)c1ccc(C(F)(F)F)cc1,4,·,0.6,-0.4,6,8,-1.5,3.1,i,·
COc1cccc(-c2noc(-c3ccc(Br)o3)n2)c1,4,·,0.9,-5.5,20,9,-1.8,·,i,·
O=C(Cn1cc(C(=O)C2CC2)c2ccccc21)NCc1ccc2c(c1)OCO2,-9,0.69,·,0.5,·,·,·,3.9,·,6
CCOC(=O)C1=CN(Cc2ccccc2)CCC1=O,·,0.68,-1.0,·,5,14,-1.1,0.1,i,·
CSc1n[nH]c(NC(C)=O)n1,-4,0.65,·,-1.4,·,·,·,3.3,·,7
CC1(C)C(=O)Nc2ccccc2N1C(=O)Cn1ncc(Cl)c(Cl)c1=O,-21,0.64,4.5,1.7,11,6,-1.5,1.5,i,55*
C(=N\N(c1ccccc1)c1ccccc1)/c1ccc(N2CCOCC2)s1,13,·,2.2,-0.1,·,·,·,·,i,34
CC1CCc2cc(F)cc3c(=O)c(C(=O)O)cn1c23 (centres undefined),-8,0.062*,-3.3,0.3,·,·,·,-2.2,i,-24
Cc1ccc(S(=O)(=O)N(C)c2cc(S(N)(=O)=O)c(C)cc2C)cc1,2,0.69,0.0,-0.2,-19,-16,-6.6,-3.5,i,3
COc1ccc(C(=O)NCc2cc(C(C)C)no2)cc1OC1CCN(C(C)C)CC1,-8,0.67,-0.9,0.2,20,21,4.1,-0.3,i,10
CS(=O)(=O)Cc1cc(Sc2ccccc2)nc(-c2ccncc2)n1,-3,0.65,8.3,0.0,4,8,-4.5,4.6,i,9
Cc1nnc(NC(=O)CSc2ccc3nnc(-c4cccnc4)n3n2)s1,0,0.7,·,0.7,·,·,·,-12,·,-4
CCCN1CCN(C(=O)Nc2ccc(C(=O)OCC)cc2)CC1,-4,0.74,·,-0.4,·,·,·,5.9,·,7
COc1ccccc1OCCNC(=O)c1cccc(S(=O)(=O)NCc2ccccc2)c1,-3,0.68,1.5,-0.7,-3,-27,5.0,-1.0,i,·
C=CCNC(=O)c1ccccc1NC(=O)c1ccccc1,-3,0.69,·,0.0,·,·,·,4.4,·,0
Cc1ccc(S(=O)(=O)c2n[nH]n3c2nc(=O)c2ccccc23)cc1,1,0.65,·,0.7,·,·,·,-12,·,-14
O=[N+]([O-])c1cc(S(=O)(=O)NCCN2CCOCC2)ccc1Sc1nnnn1-c1ccccc1,-15,0.71,7.3,0.9,·,·,·,4.2,i,5
SMILES,Beta cell apopt,E coli growth,MLL AF4-AF9 inh,Bfl-1 A1 inh,rRNA inh HTS,rRNA inh HTS OD600,rRNA inh HTS RFP,UCH37 DUB inh,FGF22 binding,T cruzi inh
O=C(O)c1ccc2c(c1)C(=O)N(Cc1ccccc1)C2=O,-3,0.67,·,?,·,·,·,-1.4,·,-4
Cc1[nH]nc2c1C1(CCC(c3ccccc3)CC1)C(C#N)=C(N)O2 (centres undefined),-10,0.68,·,-0.4,·,·,·,4.4,·,4
COCCn1c(SCC(=O)NCc2ccccc2)nc2ccccc21,-5,0.65,0.5,0.7,0,-7,1.6,1.6,i,-3
COn1c(SC2CCCCC2)nc2ccccc2c1=O,5,0.65,·,-0.2,-3,-19,-0.1,2.0,·,11
CC1=NOC(=O)/C1=C\c1ccc(-c2ccc(Cl)c(C(=O)O)c2)o1,·,·,-4.5,·,5,4,-12,5.5,i,0
COc1cccc(OCC(=O)N(C)Cc2nc(-c3ccccc3)no2)c1,-2,0.67,2.3,-1.3,-1,-6,-0.1,-1.8,i,-7
O=C(C1=C(O)C(=O)N(c2ccccc2)C1c1ccc([N+](=O)[O-])cc1)c1cccs1 (centres undefined),3,0.72,1.8,-0.5,-9,3,0.9,11,i,-10
CCOc1ccc(CCNC(=O)COC(=O)/C=C/c2ccc(OC(F)F)c(OC)c2)cc1OCC,-7,0.66,-3.0,-0.1,4,6,-0.1,-0.7,i,10
CCOC(=O)C1CCCN(C(=O)c2cc(S(=O)(=O)N3CCCCCC3)ccc2OC)C1 (centres undefined),-2,0.65,2.1,1.1,2,3,-0.1,-2.4,i,·
COc1cccc(NC(=O)COC(=O)c2cccnc2)c1,2,0.69,·,0.7,·,·,·,4.5,·,-3
CCn1cc(S(=O)(=O)N2CCN(c3ccc(Cl)cc3)CC2)cn1,3,0.69,-2.3,-0.1,-2,3,-4.9,-1.3,i,-12
Cc1ccc(S(=O)(=O)N2CCN(C(=O)C3=COCCO3)CC2)cc1C,-2,0.76,·,1.2,·,·,·,2.0,·,-3
Cc1ccc(OCc2cc(C(=O)NCC3COCCO3)no2)cc1C (centres undefined),-2,0.66,-0.6,0.7,0,4,0.3,1.3,i,4
Cc1nc2cc(NC(=O)N3c4ccccc4CC3C)ccc2o1 (centres undefined),-1,0.68,-3.5,-0.5,2,3,-3.6,2.5,i,0
Cc1cc(=O)[nH]c(SCC(=O)NCC2CCCCC2)c1C#N,0,0.6,-0.3,-0.4,-16,-32,-5.0,2.4,i,-5
CC(C)(CO)CNC(=O)CCc1nnc(C2(c3ccc(Cl)cc3)CCC2)o1,-2,0.69,-3.0,0.0,6,-2,-0.6,1.2,i,-3
COc1cc2c(cc1NC(=O)C(C)NCc1ccccc1)oc1ccccc12 (centres undefined),-2,0.7,·,-0.6,·,·,·,-0.2,·,13
Cn1c(Cc2ccccc2)nnc1SCc1cc(=O)n2ccsc2n1,4,0.72,-0.2,0.9,·,·,·,-1.2,i,-3
O=C(CSc1ccccc1)N1CCN(S(=O)(=O)c2cccs2)CC1,1,0.63,-1.7,-0.3,5,1,0.4,0.4,i,-2
CC(C)Cn1cnc2c(=O)oc3ccccc3c21,2,0.66,·,1.1,·,·,·,0.8,·,2
Cc1ccc(OCCSc2ncccn2)c(C)c1,·,0.64,-6.8,·,-16,-18,-2.3,0.4,i,8
Cc1sc2nc(CN3CCOCC3)nc(N3CCOCC3)c2c1C,-5,0.71,·,0.3,·,·,·,1.3,·,-1
O=C(CSc1nnc(-c2ccc(S(=O)(=O)N3CCCC3)cc2)o1)NCc1ccccc1,-3,0.71,·,1.7,·,·,·,3.1,·,9
Cc1nc(Nc2c(Cl)cccc2Cl)sc1C(=O)Nc1ccccc1,0,0.71,4.7,0.1,-1,-8,0.4,2.2,i,-1
CC(NC(=O)Cn1nc(C(=O)O)c2ccccc2c1=O)C12CC3CC(CC(C3)C1)C2 (centres undefined),-1,0.61,-1.7,-0.9,17,20,2.9,1.5,i,-15
SMILES,Beta cell apopt,E coli growth,MLL AF4-AF9 inh,Bfl-1 A1 inh,rRNA inh HTS,rRNA inh HTS OD600,rRNA inh HTS RFP,UCH37 DUB inh,FGF22 binding,T cruzi inh
CCCc1nnc(SCC(=O)Nc2ccc(Cl)cc2Cl)o1,-5,0.66,-5.5,-0.1,4,4,1.1,4.8,i,-9
CCN(CC)CCNC(=O)c1ccc(NC(=O)c2cccc(S(=O)(=O)Nc3ccc(C)cc3)c2)cc1,5,0.68,15,-0.1,·,·,·,1.3,i,3
O=C(CNC(=O)c1ccc(-c2ccccc2)cc1)OCc1ccc(Br)cc1,·,0.68,-2.1,·,-2,3,-1.5,-7.4,i,-28
CCOC(=O)CSc1nc2cc(OCC)ccc2cc1C#N,-2,0.74,·,-0.2,-1,5,0.3,-88,·,15
CN1CCN(C(=O)Nc2cccc(-c3ccccc3)c2)CC1,-10,0.67,-8.1,0.8,7,-3,-3.5,4.7,i,-4
CC(Cc1ccccc1)N1C(=O)c2cccc([N+](=O)[O-])c2C1=O (centres undefined),-3,0.64,10,-0.1,5,1,0.3,1.8,i,-21
COc1cc(-n2nnnc2SC)c(OC)cc1Cl,-5,0.65,-2.4,-0.6,16,11,-0.1,2.9,i,-15
Cc1noc(C)c1COC(=O)c1cc2ccccc2cc1O,1,0.63,7.7,0.1,-23,-25,-3.2,0.7,i,-8
O=C1CCC(=O)N1c1ccc(NC2CCN(Cc3ccccc3)CC2)c([N+](=O)[O-])c1,-7,0.71,-4.0,0.3,6,2,-5.0,7.3,i,1
O=C(O)c1ccc(CN2C(=O)c3ccc(Oc4ccc([N+](=O)[O-])cc4)cc3C2=O)cc1,-1,0.65,5.0,0.1,-14,-12,-0.8,4.6,i,-10
Nc1nc(NCc2ccccc2)nc(NCc2ccccc2)c1[N+](=O)[O-],2,0.7,·,-0.4,·,·,·,4.2,·,13
COc1ccc(CC(=O)Nc2ccc3c(c2)CCC3)cc1,2,0.69,·,-0.4,·,·,·,2.7,·,-8
O=C(CSCc1ccc(Cl)cc1)Nc1ccc(S(=O)(=O)N2CCOCC2)cc1,-5,0.67,3.5,-1.0,-23,-30,2.4,5.0,i,-7
S=C(NCc1cccnc1)Nc1cccc(Cl)c1,-3,0.69,·,-0.4,-1,-14,-1.2,-1.2,·,-17
O=C(CCC1CCCN(C(=O)Cc2ccc(F)cc2)C1)N1CCN(c2ccccn2)CC1 (centres undefined),-8,0.68,-0.9,0.3,-1,-1,2.8,-2.7,i,21
O=C(Nc1ccc(S(=O)(=O)N2CCCC2)cc1)C1CCCN1C(=O)c1cccs1 (centres undefined),-1,0.66,-16,0.2,6,-16,-1.1,-0.1,i,4
O=C(COc1ccc2c3c(c(=O)oc2c1)CCC3)NCc1ccncc1,-6,0.67,-10,0.7,4,-4,-2.5,-19,i,5
COc1ccccc1/C=C1\SC(=S)N(CCC(=O)N2CCCCC2CCO)C1=O (centres undefined),-25,0.69,4.3,-0.2,-11,-4,0.5,6.7,i,5

# Screening results: PubChem BioAssay, several laboratories
